Source: PubChem
miR-21 reporter – raises the signal of a miR-21 reporter | HeLa miR-21 FLuc reporter, luciferase, 48 h | Potency, µM (top dose mostly 38.3 µM), for the others: at the highest dose reporter change, positive = more light | 340,000 tested, under 10 active | AID 2288; active = well fitted rising curve with a large enough effect; inconclusive = small, poorly fitted or top-dose-only effect; inactive = no such curve, though single readings can be large or run the other way;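 note: % of control where 0% means no effect; miR-21 action dims this reporter so a rising signal means less miR-21 action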
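HeLa cells stably expressing CMV-driven firefly luciferase with a downstream miR-21 binding sequence, endogenously expressing miR-21, were treated with titrations (up to about 40uM final) for 48 hours at 37 degree Celsius. Luciferase luminescence was read after lysis.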
Rango-impB inh – inhibitors of Rango-importin beta complex formation | Q14974 | Rango CFP/YFP FRET sensor + importin beta, 45 min | Potency, µM (series often up to 92.2 µM), inactives show top-dose inhibition of complex formation | hit rate 0.031% among 340,000 | AID 540263; active = rising FRET ratio curve, often small or poorly fitted; inconclusive = mostly compound fluorescence or quenching in the first reads; inactive = flat curves in all reads;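 note: potency is the fitted concentration of half-maximal effect; 0% = DMSO wells and 100% = buffer wells lacking importin beta; nearly all actives have a fitted effect of over 15% in size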
Target sequence (Q14974 whole entry, looked up): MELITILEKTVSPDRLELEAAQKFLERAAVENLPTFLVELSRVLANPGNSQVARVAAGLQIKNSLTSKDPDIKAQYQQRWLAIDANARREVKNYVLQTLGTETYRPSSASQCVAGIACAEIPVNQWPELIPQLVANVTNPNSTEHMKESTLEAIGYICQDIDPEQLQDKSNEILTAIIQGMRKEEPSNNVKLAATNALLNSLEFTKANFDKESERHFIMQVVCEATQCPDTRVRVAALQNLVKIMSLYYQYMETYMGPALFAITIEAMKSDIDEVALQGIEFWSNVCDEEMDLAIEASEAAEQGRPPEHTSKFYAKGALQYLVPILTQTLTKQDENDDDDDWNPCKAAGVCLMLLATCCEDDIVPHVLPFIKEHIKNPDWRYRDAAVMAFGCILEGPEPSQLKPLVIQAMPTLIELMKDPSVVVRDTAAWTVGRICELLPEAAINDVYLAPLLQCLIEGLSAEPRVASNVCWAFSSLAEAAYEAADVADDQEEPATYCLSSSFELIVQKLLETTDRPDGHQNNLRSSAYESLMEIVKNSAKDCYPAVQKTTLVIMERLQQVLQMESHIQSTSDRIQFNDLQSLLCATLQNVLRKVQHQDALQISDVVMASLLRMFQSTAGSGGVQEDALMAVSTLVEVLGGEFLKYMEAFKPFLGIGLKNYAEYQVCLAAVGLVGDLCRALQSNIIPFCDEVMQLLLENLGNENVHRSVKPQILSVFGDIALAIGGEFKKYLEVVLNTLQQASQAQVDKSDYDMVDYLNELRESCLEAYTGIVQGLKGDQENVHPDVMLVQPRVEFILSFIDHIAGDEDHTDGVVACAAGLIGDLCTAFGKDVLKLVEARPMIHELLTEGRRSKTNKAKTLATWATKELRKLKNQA
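FRET biosensor (snurportin 1 IBB flanked by EYFP and cerulean), 50 nM, with compound 5 min, then 0.125 microM importin beta in PBS, 1 mM DTT, 0.02% Tween-20, 0.1% BSA. CFP/YFP ratio read after 45 min at room temperature; pre-read flags interference.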
GLA inh pH 4.5 – blocks human alpha-galactosidase A at pH 4.5 | activity change, negative = inhibition, % at 105 µM | AID 1467 | 230,000 tested, under 10 active | purified enzyme, 4-MU-alpha-Gal fluorescence, pH 4.5 | P06280; inconclusive = small, poorly fitted or top-dose-only inhibition, or a rising curve; inactive = flat fitted curve, though single readings scatter; no compound was filed as active;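 note: 0% = full activity with enzyme and -100% = basal without enzyme; dose as in the result columns while the protocol names 77 µM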
Rango dissoc inh – inhibition of RanGTP-driven Rango-importin beta dissociation. O95149+P62826. Biochemical FRET Rango-importin beta, RanGTP-induced dissociation. Potency, µM (titrated, usually from 46.1 µM), without a hit: top-dose activity change, negative = inhibition. hit rate 0.071% among 340,000; active means falling FRET ratio curve, often poorly fitted, with flat reads before Ran was added; inconclusive means other falling curves, or compound fluorescence or quenching; inactive means flat or rising ratio curve;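 note: potency is the fitted concentration of half-maximal effect; % of control where 0% means no effect; nearly all actives have a fitted effect of over 45% in size; -100% = wells without RanGTP and RCC1; the record marks most hits as doubtful in a second field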
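FRET read at 45 min, room temperature: inhibitors block the CFP/YFP signal rise when RanGTP (0.6 uM Ran, 2 mM GTP, 0.2 uM RCC1) frees Rango (0.1 uM) from importin beta (0.25 uM). Pre-read after 5 min compound exposure flags interference.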
Active calls of the source: *; ? = inconclusive; / = not tested or not shown; & = joins results of further samples; [ ] = remark or other dose. The list is partial, so the mix of outcomes need not match the whole.

Results follow in this order: miR-21 reporter, Rango-impB inh, GLA inh pH 4.5, Rango dissoc inh
- Cc1cc(C(=O)C(C)OC(=O)C2=NNC(=O)CC2)c(C)n1-c1ccc(OC(F)F)cc1 (stereo unspecified)
 : -2.2%, -0.2%, 2.2, -14.1%
- CCCN1CCN(C(=O)CCCNC(=O)c2ccc(Cl)cc2)CC1
 : 1.1%, 3.3%, /, 1.1%
- CC[C@@]12C(=O)N(c3ccc(OC)cc3)C(=O)N1[C@H](c1ccc(Cl)cc1)[C@@H]1C(=O)N(C3CCCCC3)C(=O)[C@@H]12
 : 1.3%, -0.2%, /, -11.4%
- O=C(Nc1ccc(F)cc1)Nc1ccc(Oc2ncnc3cc(Cl)ccc23)nc1
 : -1.6%, -1.4%, 2.8, -3.6%
- O=C(c1cc2c(s1)CCC2)N1CCN(c2ccccc2)CC1
 : -25.9%, -2.1%, 2.6, -10.7%
- CCCCC1=CC2=CC(=O)C(C)(OC(=O)CC)C(=O)C2=CN1C1CCCC1 (stereo unspecified)
 : -1.0%, ?, 5.0&1.4, -22.5%
- O=C(NCc1cccs1)C1CC(=O)N(c2ccccc2)C1 (stereo unspecified)
 : -10.6%, -3.1%, -24.0, 1.4%
- O=C(CSc1cccc[n+]1[O-])N1CCCc2ccccc21
 : -7.9%, -1.8%, -2.0, 0.2%
- O=C(CN1CCCCC1)Nc1ccc(F)c(Cl)c1
 : -14.3%, 1.9%, 4.6, 15.6%
- COc1ccc(CNC(=O)CN(c2cccc(OC)c2)S(C)(=O)=O)cc1
 : -4.1%, -0.3%, -2.9, 5.0%
- COc1ccccc1NC(=O)c1cccc(S(=O)(=O)N2CCOCC2)c1
 : -5.6%, -0.9%, -5.5, 7.9%
- Cc1cn(CC(=O)NCCCc2ccccc2)c(=O)[nH]c1=O
 : /, -4.7%, /, -0.1%
- CC(=O)Nc1ccc(S(=O)(=O)Nc2cccc(-c3nc4cc(C)ccc4o3)c2)cc1
 : /, 3.1%, /, 14.6%
- Cc1ccc(CNC(=O)C(=O)NCC2OCCCN2S(=O)(=O)c2ccc(F)cc2)cc1 (stereo unspecified)
 : 3.0%, 0.6%, /, 3.6%
- COC(=O)c1ccccc1NC(=O)c1ccc(F)cc1
 : -5.8%, 5.9%, -1.1&-12.8, -5.3%
- CC1CC(C)CN(CCCNC(=O)CN2C(=O)c3cccnc3Oc3ccc(Cl)cc32)C1 (stereo unspecified)
 : -2.2%, -3.1%, /, -10.8%
- CSc1ccccc1OCc1cc(C(=O)NCCCn2nc(C)cc2C)no1
 : 5.8%, 2.7%, /, -0.2%
- COc1ccc(-c2nc(C#N)c(NCCN(C)C)o2)cc1
 : /, ?, /, 6.9%
- Cc1cc(C(=O)COC(=O)c2ccc(NC(=O)CC#N)cc2)c(C)n1-c1ccc(OC(F)F)cc1
 : /, -3.6%, /, 4.7%
- CCOC(=O)C1C(=O)C=C(c2ccc(C)cc2)CC1c1ccccc1 (stereo unspecified)
 : -11.9%, -3.3%, -0.6, -10.4%
- O=S(=O)(Nc1nc2ccccc2nc1NCc1ccco1)c1ccc(F)cc1
 : 10.7%, -1.8%, 0.1, 9.6%
- COc1cc(OC)c(OC)cc1/C=N/NC(=O)c1cccc(S(=O)(=O)N2CCOCC2)c1
 : 5.7%, 1.9%, -5.9, -12.0%
- Cc1coc(C)c1C(=O)CC1(O)C(=O)N(Cc2ccccc2)c2ccccc21 (stereo unspecified)
 : 3.3%, -0.3%, -0.1, -4.7%
- CCOC(=O)c1[nH]c2ccc(OC)cc2c1NC(=O)C(C)N1CCC2(CC1)OCCO2 (stereo unspecified)
 : 0.7%, /, 3.3, /
- Cc1cc(C)c(CSc2ncnc3nc[nH]c23)c(C)c1
 : -2.0%, 0.0%, 4.2, 11.2%
- O=C(O)c1ccc(NS(=O)(=O)/C=C/c2ccccc2)cc1
 : -5.5%, 0.3%, 7.3, -5.1%
- Nc1nnc(SCC(=O)c2ccc3c(c2)NC(=O)CO3)s1
 : -5.6%, 1.7%, 2.0, 0.5%
- CCC(=O)Nc1sc2c(c1C#N)CC(C)(CC)OC2 (stereo unspecified)
 : -14.8%, -4.8%, 9.9, -10.7%
- CC(C)(C)C(=O)Nc1nc(NC(=O)C(C)(C)C)nc(-c2ccccc2Cl)n1
 : 2.2%, 0.2%, -11.9, 0.3%
- c1ccc(-c2csc(CN3CCCCC3)n2)cc1
 : /, -0.4%, /, -10.8%
- Cc1ccc2nc(-c3cccc(SC4CCCCC4)c3)c(NC3CCCCC3)n2c1
 : /, ?, /, -13.3%
- C/C(CC(=O)Nc1cccc(Cl)c1Cl)=N\NC(=O)c1ccccc1C
 : -15.6%, -0.3%, -9.9, 1.6%
- CC(C)CCn1nnnc1C(c1ccccc1)N1CCC(C(N)=O)CC1 (stereo unspecified)
 : -3.0%, -4.4%, 9.3, -0.9%
- Cc1nnc(NC(=O)C(C)Oc2ccc3c(C)cc(=O)oc3c2)s1 (stereo unspecified)
 : -1.5%, -0.8%, -0.6, 2.5%
- Cn1nc(C(=O)NCc2cccs2)c2ccccc2c1=O
 : 4.6%, 2.5%, -8.4, 20.3%
- CC1CCCC(NC(=O)CCS(=O)(=O)c2ccc3c(c2)NC(=O)CS3)C1C (stereo unspecified)
 : -0.8%, 1.1%, /, -23.7%
- c1ccc(C(c2ccccc2)N2CCN(c3nc4ccccc4n4cnnc34)CC2)cc1
 : 5.8%, 4.0%, -3.3, 5.1%
- CN(C)c1nc(OCCNC(=O)Nc2ccccc2)nc(N2CCOCC2)n1
 : -3.1%, -2.3%, 5.7, -12.5%
- COc1ccc(-c2nsc(SCC(=O)NCC3CCCO3)n2)cc1 (stereo unspecified)
 : -36.5%, -3.0%, -2.0, -5.7%
- COC(C(=O)Nc1cccc([N+](=O)[O-])c1)c1ccccc1 (stereo unspecified)
 : -1.1%, -1.5%, 17.1, 0.2%
- CCSC1=C(C#N)C(c2ccc(C)o2)CC(=O)N1 (stereo unspecified)
 : 4.8%, ?, 4.1, 3.4%
- OCC[C@H]1C[C@H](O)[C@@H](O)[C@]2(CCCO2)O1
 : /, -2.0%, /, -6.1%
- O=C(NN1C(=O)/C(=C/c2ccc(O)c(O)c2)SC1=S)c1ccccc1
 : 6.5%, 36.6µM*, /, ?
- Cc1ccc(-n2ncc3c2CCCC3NC(=O)c2csnn2)cc1C (stereo unspecified)
 : -5.4%, -0.9%, /, -6.9%
- Cc1noc(C)c1S(=O)(=O)Nc1ccc(C(=O)N2CCC(C)CC2)cc1
 : -1.6%, /, 0.8[21.1 µM], /
- O=C(CC1SC(=Nc2ccc(O)cc2)NC1=O)Nc1ccccc1 (stereo unspecified)
 : -5.6%, -0.9%, 1.2, -0.1%
- CN1CCc2c(sc3nc(SCC(=O)N4CCOCC4)n(-c4ccc(Cl)cc4)c(=O)c23)C1
 : -1.1%, ?, /, ?
- O=C(c1ccc(Cl)cc1)N1CCN(c2ncccn2)CC1
 : -8.1%, 2.9%, /, 5.9%
- CCCN(C(=O)c1ccco1)c1nnc(-c2cccc(C)c2)s1
 : -56.3%, -1.5%, -8.3, 2.7%
- CC1CCN(CCCCOc2ccccc2F)CC1
 : -5.8%, -1.2%, /, -11.1%
- CCOC(=O)c1cc2sccc2n1CCCN1C(=O)c2ccccc2C1=O
 : -7.6%, -1.1%, -11.5, 1.2%
- O=C(Nc1ccc2c(c1)OCO2)c1ccccn1
 : /, -1.2%, /, -0.2%
- CCOc1ccccc1Nc1nc(N)nc(Cl)c1CC
 : /, 1.3%, /, 21.8%
- O=c1cc(CN2CCN(S(=O)(=O)c3ccccc3)CC2)nc2sccn12
 : -3.8%, ?, 6.5, -22.3%
- CCOC(=O)c1ccc(NC(=O)NNS(=O)(=O)c2cc(OC)ccc2OC)cc1
 : -2.6%, 1.0%, /, -3.8%
- O=C1C(c2ccccc2)SC(=Nc2ccccc2)N1S(=O)(=O)c1ccccc1 (stereo unspecified)
 : -18.3%, -0.1%, -4.6, -14.5%
- COC(=O)c1c(NC(=O)CC2SC(N)=NC2=O)sc(C)c1C (stereo unspecified)
 : -0.6%, 0.3%, 8.0, 10.4%
- Cc1ccc(C)c(S(=O)(=O)N2CCN(C(=O)c3cc(S(=O)(=O)NCc4ccccc4)ccc3C)CC2)c1
 : 12.6%, 0.7%, /, ?
- CCOc1ccc(-c2n[nH]c(C)c2-c2ccccc2OC)c(O)c1
 : 26.3%, 0.5%, -4.2, 1.4%
- Cc1noc2ncnc(N3CCCC3)c12
 : 0.1%, -1.7%, 3.5, 7.8%

(more compounds)
Results follow in this order: miR-21 reporter, Rango-impB inh, GLA inh pH 4.5, Rango dissoc inh
- Cc1ccc(C(=O)Nc2ccc(S(=O)(=O)NC3=NCCCCC3)cc2)cc1S(=O)(=O)N1CCOCC1
 : /, -0.2%, /, 5.3%
- COc1ccc(CSCCNC(=S)Nc2ccccc2)cc1Cl
 : -2.2%, 0.0%, ?, -8.0%
- NS(=O)(=O)c1ccc(CNC(=O)c2scc3c2CCCC3)cc1
 : -5.2%, -1.5%, -4.1[21.1 µM], -1.1%
- CC(=NNC(=O)Cn1ccc(C(F)(F)F)n1)c1ccc(-n2ccnc2)cc1
 : /, ?, /, -7.3%
- Cc1nc2c3c(-c4ccccc4)c(-c4ccccc4)oc3ncn2n1
 : -5.6%, /, -5.9, /
- CCCCOC(=O)c1ccc(NC(C)=O)cc1
 : -35.1%, 1.4%, -5.2, 3.5%
- Cc1cc(C(=O)CSc2nnc(N)s2)c(C)n1Cc1cccs1
 : 25.7%, -3.7%, 6.1, 4.7%
- O=C1CCCC2=C1C(c1ccc(Cl)cc1)C1C(=O)c3ccccc3C1=N2 (stereo unspecified)
 : 12.6%, -0.6%, 8.4, -13.8%
- CC1(C)Cc2ccccc2C(NNC(=O)c2ccccn2)=N1
 : 17.8%, 1.7%, 3.9, 2.8%
- CCC(=O)c1ccc(OCC(=O)Nc2ccccc2N2CCOCC2)cc1
 : /, 0.2%, /, 15.5%
- COc1ccc(-n2cnc3c(sc4nc(N5CCOCC5)c5c(c43)CCCC5)c2=O)cc1
 : 3.4%, 1.9%, 3.9, 20.8%
- Cc1ccc(NC(=O)NC2OC(=O)c3ccccc32)cc1 (stereo unspecified)
 : /, 3.7%, /, 7.3%
- COc1ccc(-c2nnn(CC(=O)N(Cc3ccccc3Cl)C(C(=O)NCC3CCCO3)c3ccco3)n2)cc1OC (stereo unspecified)
 : 2.6%, 1.0%, -19.4, -3.3%
- CCOC(=O)c1[nH]c2ccc(OCC)cc2c1NC(=O)CN1CCCC(C)C1 (stereo unspecified)
 : 1.3%, 1.4%, -8.6, -6.4%
- COc1ccc(Cc2nc(-c3ccc(NC(=O)c4cccnc4)cc3)no2)cc1
 : 1.1%, -5.4%, -3.1, -12.9%
- O=C1C2CC=CCC2C(=O)N1c1n[nH]c(Cc2ccccc2)n1 (stereo unspecified)
 : -4.8%, -0.2%, 0.3, -15.7%
- CCOC(=O)/C=C1\CC(=O)Nc2nonc2N1
 : -12.7%, -1.4%, -3.7, -5.6%
- CC(C)(C)c1csc(NC(=O)c2cccs2)n1
 : -14.5%, -2.1%, -4.4, -3.3%
- O=C(Nc1ccc2oc(=O)ccc2c1)c1cccnc1Cl
 : 0.3%, 1.1%, -13.5, -7.8%
- O=C(Nc1ccc(N2CCOCC2)nc1N1CCOCC1)c1cccc(C(F)(F)F)c1
 : 8.8%, -0.4%, 17.5, -17.1%

Rewritten as comma-separated lines: entries from further up.
Structure,miR-21 reporter,Rango-impB inh,GLA inh pH 4.5,Rango dissoc inh
NS(=O)(=O)c1ccc(CNC(=O)c2scc3c2CCCC3)cc1,-5.2%,-1.5%,-4.1[21.1 µM],-1.1%
COc1ccc(CSCCNC(=S)Nc2ccccc2)cc1Cl,-2.2%,0.0%,?,-8.0%
O=C1C2CC=CCC2C(=O)N1c1n[nH]c(Cc2ccccc2)n1 (stereo unspecified),-4.8%,-0.2%,0.3,-15.7%
CC1(C)Cc2ccccc2C(NNC(=O)c2ccccn2)=N1,17.8%,1.7%,3.9,2.8%
